From PubChem BioAssay
rRNA inh HTS: inhibits bacterial ribosomal RNA function over humanized ribosomes; E. coli WT GFP vs humanized-ribosome RFP mutants, fluorescence, 24 h; hits give low values; DMSO median 0, no signal -100; GFP signal change (wild-type ribosome), % (no concentration beside the values); 350,000 tested, 1.6% active; AID 720706;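 active means significant combined selectivity score with lowered wild-type GFP, culture density cut under 30%, mutant RFP and density less affected; inactive means any of these conditions unmet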; further: one replicate is shown; some compounds called inactive have numbers as strong as hits
T cruzi inh: blocks replication of Trypanosoma cruzi | T. cruzi beta-gal in NIH3T3, luminescence, 90 h | 300,000 tested, 1.4% active | inhibition, % (no concentration beside the values);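 active means mean inhibition across valid replicates above about 55%, limit read from the data; inconclusive means mean below that limit but half or more replicates reach it; inactive means mean below it, under half of replicates reach it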;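 further: signal also drops with host cell toxicity which is not excluded here; 0% = plate median of DMSO wells and 100% = zero luminescence signal; higher percent means less beta-gal luminescence so fewer parasites; stock transfer was 50 nL into about 50 µL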
LANA-H2A inh: blocks KSHV LANA binding to histone H2A/H2B | Q9QR71 | cell-free LANA-H2A/H2B peptide, fluorescence polarization | inhibition, % (test concentration not listed) | 320,000 tested, 0.6% active | AID 2629; in the data active means inhibition mostly above about 10%, no sharp cut-off; inactive means mostly below about 6.7%;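 further: stock transfer was 7.5 nL into about 10 µL; 0% = median of vehicle wells and 100% = median of positive control wells; one replicate is shown; the record names a cut of 25% in any replicate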
Beta apoptosis: beta cell apoptosis inhibition; protection from apoptosis, % (test concentration not listed); 300,000 tested, 0.8% active; AID 435005; INS-1E cytokine-induced death, ATP luminescence, 48 h; percent of positive-control rescue, neutral wells zero;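 active means all replicates at 75% or more, or half of them and the mean; inconclusive means half reach 75% but not the mean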;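 further: 0% = cytokine-treated negative control wells and 100% = positive control rescue; higher means more ATP so stronger rescue from cytokine killing; wells of about 40 µL received 100 nL stock; the first replicate is given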
B2AR ag: activates human beta-2 adrenergic receptor causing internalization; Am2.2-beta2AR cells, FAP receptor internalization, flow cytometry; reference of the scale not given here; AID 504454; P07550; 340,000 tested, 0.43% active; response, % (concentration not given with the values);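 active means response above a set limit, near 3 SD of response in nonfluorescent compounds, cut at about 42% in these data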;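 further: stock transfer was 100 nL into about 11 µL; a reference agonist was the positive control; negative values mostly stem from fluorescent compounds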
Target sequence (P07550 whole entry, looked up): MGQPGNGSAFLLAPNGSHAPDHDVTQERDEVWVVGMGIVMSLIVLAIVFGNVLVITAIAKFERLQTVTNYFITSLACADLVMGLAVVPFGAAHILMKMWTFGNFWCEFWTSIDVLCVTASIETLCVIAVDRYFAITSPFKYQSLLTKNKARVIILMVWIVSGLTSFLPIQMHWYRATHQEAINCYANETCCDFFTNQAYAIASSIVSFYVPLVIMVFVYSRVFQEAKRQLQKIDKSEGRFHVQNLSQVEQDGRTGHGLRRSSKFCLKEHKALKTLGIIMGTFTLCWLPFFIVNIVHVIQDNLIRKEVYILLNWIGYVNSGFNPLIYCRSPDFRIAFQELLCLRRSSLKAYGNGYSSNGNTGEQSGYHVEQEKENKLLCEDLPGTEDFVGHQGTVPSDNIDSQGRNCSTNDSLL
Calb FLC: C. albicans growth modulation with fluconazole; 300,000 tested, 0.57% active; growth inhibition, % (test concentration not listed); C. albicans CaCi-2 (fluconazole-resistant clinical isolate) + fluconazole, Alamar Blue growth, 48 h;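 active means most replicates above 75%; inconclusive means exactly half above 75%; inactive means most below 75%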;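 further: all wells also contain fluconazole at 8 µg/ml as a sub-toxic cotreatment; 0% = median of DMSO wells and 100% = median of geldanamycin control wells; wells of about 8 µL received 7.5 nL stock; the first replicate is given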
A1 inh: inhibitors of the anti-apoptotic protein A1, read as caspase activation; MEF A1-2A-BIM cells, Caspase-Glo 3/7 luminescence, 3 h; percent of clofoctol response, vehicle zero; caspase activation, % (concentration not given with the values); 330,000 tested, 0.066% active; AID 2462;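 active means over half of replicate activation scores above 10%, or exactly half above 10 with the replicate mean above 10; inconclusive means replicate mean below 10 yet half the replicates above 10; inactive means over half of replicates below 10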;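 further: wells of about 30 µL received 50 nL stock; many hits fall short of the cut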
ALR inh: inhibitors of human sulfhydryl oxidase ALR. 290,000 tested, 3.8% active. AID 485317. inhibition, % (no concentration beside the values). P55789. purified ALR, DTT oxidation, H2O2 HRP-luminol luminescence;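 active means mean and each replicate at 75% or more; inconclusive means only one of the two met; inactive means neither met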;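 further: stock transfer was 7.5 nL into about 7.5 µL; 0% = neutral wells and 100% = wells with inactivated enzyme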
Target sequence (P55789 whole entry, looked up): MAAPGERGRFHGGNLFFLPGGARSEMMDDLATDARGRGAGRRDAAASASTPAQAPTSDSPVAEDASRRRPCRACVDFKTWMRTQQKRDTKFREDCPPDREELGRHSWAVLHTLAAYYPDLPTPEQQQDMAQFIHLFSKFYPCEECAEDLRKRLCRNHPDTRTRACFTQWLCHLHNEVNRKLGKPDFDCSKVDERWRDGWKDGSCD
rRNA inh HTS OD600: further read-out of rRNA inh HTS, marked with its call; OD600 change, %; measured here: OD600 growth;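 optical density of the mix in the first replicate; 0 = DMSO median and -100 = no signal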
rRNA inh HTS RFP: second read-out of rRNA inh HTS, no call of its own (marks repeat the call); RFP signal change, %; measured here: RFP humanized mutant strains;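 first replicate; 0 = DMSO median and -100 = no signal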
Starred values were filed as active, the others as inactive; ? = inconclusive; / = no result given; & = joins results of further samples.

SMILES	rRNA inh HTS	rRNA inh HTS OD600	rRNA inh HTS RFP	T cruzi inh	LANA-H2A inh	Beta apoptosis	B2AR ag	Calb FLC	A1 inh	ALR inh
N#Cc1c(N2CCOCC2)nsc1-c1ccc(C(F)(F)F)cc1	0	11	2.4	16	0.5	6	-17	2	0.1	-4
C=CCNc1nc(Cl)nc(NCc2ccco2)n1	9	12	-1.5	-14	-5.2	-1	-2	0	0.9	37
CCOc1ccc(-n2c(=O)c3sccc3n(CC(=O)Nc3cccc(OC)c3)c2=O)cc1	12	8	4.8	-5	-2.7	-5	-8	-11	0.0	-2
COc1cccc(C(=O)OCCNC(=O)c2cccnc2)c1	-2	-5	4.8	5	-0.1	0	0	-5	1.1	8
O=C(Nc1sc2c(c1C(=O)NCc1cccnc1)CCCC2)c1ccco1	/	/	/	1	5.8	2	19	46	0.4	4
Cc1nonc1CC(=O)N1CCc2c([nH]c3ccccc23)C1c1ccccc1F (centres undefined)	-5	-2	-3.2	4	1.9	-4	-7	?	1.4	-3
Cc1ccc(C)c(N2CCN(S(=O)(=O)c3ccc4[nH]c(=O)ccc4c3)CC2)c1	-1	5	-1.5	2	-5.2	6	5	2	0.2	/
CCc1ccc(CNc2ccc(O)cc2)cc1	/	/	/	-9	-0.9	7	11	?	-0.5	84*
CCC(=O)NCCCNc1nc2c(C)cccc2cc1C#N	6	-3	-4.6	-4	-4.9	-2	-3	5	0.8	-19
CCNc1nc(Oc2ccc(C(=O)OC)cc2)nc(SC)n1	/	/	/	9	1.4	-1	-5	42	-0.4	-12
COc1ccc(/C=C/C(=O)NCc2ccc3c(c2)OCO3)cc1OC	8	3	2.2	-17	2.0	/	0	-15	0.1	-3
O=c1c2[nH]c3cccc(Cl)c3c2ncn1Cc1ccco1	9	1	-3.3	-26	-1.4	-5	-3	-7	1.3	-6
Nc1nonc1C(=O)NCCNCc1cc(Br)ccc1OCc1ccc(F)cc1	/	/	/	5	-4.4	62	-2	-2	0.2	-3
O=C(OCC(=O)N1CCCCC1)c1cccs1	15	15	1.5	/	1.9	-7	-4	/	-0.2	-5
COc1ccccc1C(CC(N)=O)c1ccco1 (centres undefined)	/	/	/	2	-0.8	-6	4	0	-0.6	-6
CCCSc1nc(N)cc(=O)[nH]1	/	/	/	-15	-2.8	/	-88	0	1.2	-5
Cc1ccc(C(C(=O)NCc2ccco2)N(Cc2ccco2)C(=O)CNC(=O)c2ccco2)cc1 (centres undefined)	/	/	/	0	3.1	-1	-10	-21	-0.6	-9
CC(NC(=O)CN(c1ccc(Br)cc1)S(C)(=O)=O)c1ccccc1 (centres undefined)	4	1	1.8	-8	2.1	1	-3	6	-1.2	/
Cc1ccc(C)n1-c1ccc(N2CCOCC2)nc1	21	16	26	19	-3.9	-2	3	-9	-0.3	53
Cc1ccc(C)c(NC(=S)Nc2ncccc2C)c1	8	9	0.3	18	-2.2	0	2	-57	-4.1	79*
CCOC(=O)c1c(C)[nH]c(C)c1C(=O)COC(=O)c1cc2ccccc2cc1O	-37	-57	25	-18	-4.0	3	0	8	-0.2	-2
Cc1ccc(SCCC(=O)Nc2cccc(N(C)S(C)(=O)=O)c2)cc1	/	/	/	-11	3.1	-4	-4	43	0.5	7
Cc1cccn2c(=O)cc(COC(=O)C(C)Oc3ccccc3)nc12 (centres undefined)	-2	-4	1.7	/	-3.4	-5	-3	/	-1.7	-7
COc1ccc(N2CCCn3c2nc2c3c(=O)n(Cc3ccccc3F)c(=O)n2C)c(OC)c1	/	/	/	3	-0.2	-2	-8	27	0.0	5
COc1ccc(NC(=O)N2CCCC(C(=O)NCCc3ccccc3)C2)cc1 (centres undefined)	7	5	-2.4	-4	-4.4	-3	5	-19	-0.1	0

Some entries already given, showing only rRNA inh HTS and B2AR ag.
| Compound | rRNA inh HTS | B2AR ag |
| --- | --- | --- |
| CC(NC(=O)CN(c1ccc(Br)cc1)S(C)(=O)=O)c1ccccc1 (centres undefined) | 4 | -3 |
| Cc1ccc(C)n1-c1ccc(N2CCOCC2)nc1 | 21 | 3 |
| Cc1ccc(C)c(NC(=S)Nc2ncccc2C)c1 | 8 | 2 |
| CCOC(=O)c1c(C)[nH]c(C)c1C(=O)COC(=O)c1cc2ccccc2cc1O | -37 | 0 |

A few values from the entries so far.
For ALR inh, CCNc1nc(Oc2ccc(C(=O)OC)cc2)nc(SC)n1 has -12
For rRNA inh HTS RFP, Cc1cccn2c(=O)cc(COC(=O)C(C)Oc3ccccc3)nc12 (centres undefined) has 1.7
For rRNA inh HTS, O=c1c2[nH]c3cccc(Cl)c3c2ncn1Cc1ccco1 has 9
For rRNA inh HTS RFP, Cc1ccc(C)n1-c1ccc(N2CCOCC2)nc1 has 26

(listing goes on)
SMILES	rRNA inh HTS	rRNA inh HTS OD600	rRNA inh HTS RFP	T cruzi inh	LANA-H2A inh	Beta apoptosis	B2AR ag	Calb FLC	A1 inh	ALR inh
COc1ccc(S(=O)(=O)N(CC(=O)NC2CCCC2)c2ccccc2OC)cc1	-29*	-17*	1.1*	7	-6.2	/	2	-5	1.1	-5
O=C(NNc1c(Cl)cccc1Cl)c1c(F)cccc1Cl	2	-4	4.5	-12	0.9	0	-1	-4	0.2	1
CC(=O)NC1CC2CCCC(C1)N2CC(=O)NCc1ccc(F)cc1 (centres undefined)	/	/	/	1	1.1	-7	4	-3	0.7	-2
CN(Cc1nc(-c2cnccn2)no1)C1CC(C)(C)NC(C)(C)C1	16	6	-1.9	-10	4.2	-8	3	6	0.8	12
O=C(Nc1ccccc1)OCc1cc(-c2ccccc2Cl)on1	/	/	/	-6	31*	2	-3	-4	0.5	/
COc1ccc(CN2CN=C(Nc3nc4ccccc4s3)NC2)cc1	/	/	/	3	3.0	10	-5	-4	-1.7	-10
COc1ccc(/C=C2\SC(=S)N(Cc3cccnc3)C2=O)cc1C	/	/	/	-5	-6.6	-3	10	-3	0.2	-5
Cc1ccc(C)c(OCC(=O)Nc2nc3ccc([N+](=O)[O-])cc3s2)c1C	-12	-9	-1.3	-12	2.5	4	18	6	0.0	-11
COc1ccc(NC(=O)CN(C)C(=O)c2cccc(S(=O)(=O)N3CCN(Cc4ccccc4)CC3)c2)cc1	/	/	/	9	-3.9	17	-5	1	0.1	7
O=C1OC(NC(=O)c2ccccc2)C(N2CCOCC2)=C1Cl (centres undefined)	/	/	/	6	-4.5	-5	3	0	-0.2	-4
CC(C)(C)c1ccc(C(=O)OCCNC(=O)c2c(Cl)nc3ccccn23)cc1	/	/	/	21	-1.3	2	3	13	0.6	-3
CC(O)CNCCCCOc1ccc(OCc2ccccc2)cc1 (centres undefined)	2	1	5.5	29	9.9	0	7	-21	-1.4	10
COc1cc(C)nc(N(C)S(=O)(=O)c2ccccc2Cl)n1	/	/	/	-3	1.9	3	2	-11	-0.1	0
Cc1ccc2nc3c(cc(C(=O)NC4CCS(=O)(=O)C4)n3Cc3ccccc3)c(=O)n2c1 (centres undefined)	2	15	-2.6	18	0.4	-3	8	-20	0.4	-3
CCOc1ccc(CCNC(=O)C2CSC3(C)CCC(=O)N23)cc1OCC (centres undefined)	9	11	-1.1	14	-7.8	-8	-1	?	0.4	-1
CCOC(=O)N1CCN(C(=O)c2cc3c(s2)-c2c(C)cccc2OC3)CC1	-10	-19	-4.3	-3	-2.3	-2	2	2	0.3	-5
COc1cc(COc2ccc3c(C)c(CC(=O)O)c(=O)oc3c2C)cc(OC)c1OC	0	-10	-2.1	-1	4.6	-3	-8	6	0.3	-3
O=[N+]([O-])c1ccccc1S(=O)(=O)Nc1ccc(S(=O)(=O)N2CCCC2)cc1	-6	-3	-2.2	/	-5.9	0	1	/	0.2	-5
C[C@H](CO)N1C[C@H](C)[C@@H](CN(C)S(=O)(=O)c2ccccc2)Oc2ccc(NS(=O)(=O)c3cn(C)cn3)cc2C1=O	4&2	7&8	-3.2&0.6	/	-1.6	0	-1	/	0.7	/
O=C(Cc1ccccc1)N/N=C/c1ccc2c(c1)OCO2	12	6	-0.4	7	-1.7	/	-1	-8	-3.9	-5
COc1cccc(-n2c(SCC(=O)c3c[nH]c4ccccc34)nc3ccccc3c2=O)c1	12	13	-0.1	13	1.8	3	6	-15	0.2	-2
CC(C)OCCCNC(=O)c1ccc2c(c1)S(=O)(=O)c1ccccc1C2=O	-7	-17	0.6	2	0.8	3	-11	6	0.2	-2
CCc1nc(-n2[nH]c(=O)c3ccccc3c2=O)c2c3c(sc2n1)CCCC3	/	/	/	-6	-0.3	-4	-13	-8	0.6	/
Cn1c(CNS(=O)(=O)c2ccc(Cl)cc2)cc(=O)n(C)c1=O	9	12	1.1	-10	-5.2	-1	7	-17	0.1	-44
Cc1cccc(N=C2NC(=O)/C(=C3/C(=O)N(C)c4ccccc43)S2)c1C	/	/	/	5	-0.9	5	0	14	1.1	-5

Entries listed so far that bear a hit mark in ALR inh.
compound,rRNA inh HTS,rRNA inh HTS OD600,rRNA inh HTS RFP,LANA-H2A inh,B2AR ag,ALR inh
CCc1ccc(CNc2ccc(O)cc2)cc1,/,/,/,-0.9,11,84*
Cc1ccc(C)c(NC(=S)Nc2ncccc2C)c1,8,9,0.3,-2.2,2,79*

New compounds follow:
SMILES	rRNA inh HTS	rRNA inh HTS OD600	rRNA inh HTS RFP	T cruzi inh	LANA-H2A inh	Beta apoptosis	B2AR ag	Calb FLC	A1 inh	ALR inh
Cc1ccnc(SCC(=O)Nc2oc(-c3ccccc3)c(-c3ccccc3)c2C#N)n1	/	/	/	14	-1.3	9	2	-12	1.6	/
COc1ccccc1OCCNC(=O)CN(c1cccc(C)c1)S(=O)(=O)c1ccccc1	-28	-34	-5.0	13	0.8	4	7	?	0.3	1
O=C(O)c1cccn1Cc1ccccc1F	/	/	/	-7	6.8	-1	9	19	1.3	-6
Cc1ccc(CCNC(=O)c2cccc(NC3=NC4CS(=O)(=O)CC4S3)c2)cc1 (centres undefined)	4	11	-2.5	-5	0.7	2	-1	-2	0.5	-3
CCc1cccc(N(C)C(N)=Nc2cccc3ccccc23)c1	14	11	1.6	-3	-5.6	-9	4	-20	0.2	6
O=C(Nc1cc(S(=O)(=O)N2CCOCC2)ccc1N1CCOCC1)c1ccccc1[N+](=O)[O-]	6	14	-0.3	/	5.1	0	2	/	1.0	-24
CCCS(=O)(=O)N1CCN(C(=O)c2cc(OC)cc(OC)c2)CC1	/	/	/	8	3.9	-1	9	14	0.1	1
COc1ccc(Cc2nnc(SCC(=O)NC3CCCCC3)n2C)cc1	13	7	1.6	-17	-1.5	/	0	-6	-0.8	-5
COc1ccc(Cl)cc1NC(=O)C(=O)N/N=C/c1cc(C)n(-c2ccc(C)cc2)c1C	3	-1	5.0	3	-1.5	12	5	?	0.5	-1
O=C(C1=C[C@@H](c2ccccc2)C[C@@H](OCc2ccc(CO)cc2)O1)N1CCN(Cc2ccc3c(c2)OCO3)CC1	-6	-11	2.1	53	-5.1	6	1	-14	0.4	1

The list is partial; the hit share may differ from the screen's.
